MT1-MMP act inh – blockers of MT1-MMP proenzyme processing, primary screen, HT1080 RFP-PRO-GFP cells, GFP/RFP fluorescence; Matrix metalloproteinase-14 (Homo sapiens), P50281; GFP/RFP ratio fluorescence, overnight; percent of plate control window, DMSO zero; GFP/RFP ratio change, % at 20 µM; 0.061% of 360,000 active; AID 651647, 2012;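 active = GFP/RFP ratio change of at least 30% with cell ATP level not reduced by more than half and red fluorescence within 50% of control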; also: strong numbers were not always called active
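Assay system: HT1080 RFP-PRO-GFP cells. Benchmarks: DMSO vehicle wells and RFP-L50D-GFP reporter cell wells. Times: overnight cell settling, then overnight compound exposure, 37 °C, 5% CO2. Compound: 20 µM single dose, 1% DMSO. Read-out basis: GFP/RFP fluorescence ratio.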
PABP FP inh – PABP poly(A) RNA binding inhibitors, primary screen, biochemical, fluorescence polarization, uHTS | Polyadenylate-binding protein 1 (Homo sapiens), P11940 | inhibition, % at 35 µM | 1% of 290,000 active;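 active = 50% or more with normal probe brightness, or confirmed in later tests; inconclusive = above 50% with abnormal brightness, or retests that disagree; inactive = below 50% or failed in later tests; about a fifth of its hits are not listed in these tables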;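 also: calls also rest on retests at 20 µM and on dose response follow-up; controls were probe without protein and protein plus probe with vehicle; some compounds called inactive have numbers as strong as hits; many hits fall short of the cut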
Target sequence (P11940 whole entry, looked up): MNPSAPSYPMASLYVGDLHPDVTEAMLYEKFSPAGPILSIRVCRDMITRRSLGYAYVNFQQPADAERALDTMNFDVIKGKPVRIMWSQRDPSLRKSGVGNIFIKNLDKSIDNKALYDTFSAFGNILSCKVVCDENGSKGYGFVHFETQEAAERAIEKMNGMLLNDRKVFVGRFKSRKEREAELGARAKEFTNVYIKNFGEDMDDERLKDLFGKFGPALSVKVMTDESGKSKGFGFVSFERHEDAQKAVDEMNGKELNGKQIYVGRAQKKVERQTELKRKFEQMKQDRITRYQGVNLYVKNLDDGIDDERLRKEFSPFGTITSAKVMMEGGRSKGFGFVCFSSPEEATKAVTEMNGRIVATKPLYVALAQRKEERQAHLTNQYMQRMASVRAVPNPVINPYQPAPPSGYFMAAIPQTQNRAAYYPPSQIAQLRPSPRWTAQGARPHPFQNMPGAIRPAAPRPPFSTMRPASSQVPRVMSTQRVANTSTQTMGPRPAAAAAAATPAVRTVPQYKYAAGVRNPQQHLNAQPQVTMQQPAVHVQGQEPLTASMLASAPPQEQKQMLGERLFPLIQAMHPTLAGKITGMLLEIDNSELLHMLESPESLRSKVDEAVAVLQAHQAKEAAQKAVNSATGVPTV
HIV Env fusion – inhibitors of HIV-1 Env-driven cell-cell fusion, primary screen, HeLa-JRFL effector, CEM21 target cells, luciferase; inhibition, % at 12.3 µM; 1.1% of 360,000 active;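 active = mean replicate inhibition score of at least 50 and every replicate individually at or above 50; inconclusive = only one of the two criteria met; inactive = mean below 50 and not all replicates reaching 50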;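 also: 0% = plate neutral controls and 100% = maraviroc near 300 nM; one replicate is shown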
Rce1 inhib – yeast Rce1p protease inhibitors, primary screen, biochemical, fluorescence, cell-free homogeneous; CAAX prenyl protease 2 (Saccharomyces cerevisiae (strain ATCC 204508 / S288c)), Q03530; yeast membranes, quenched prenylated peptide cleavage fluorescence; calls only; 0.27% of 290,000 active; AID 2563, 2010;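 active = fall in fluorescence gain of 50% or more versus controls, with final raw signal at or below 3038400; inconclusive = same 50% fall but final raw signal above 3038400; inactive = fall in fluorescence gain under 50%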;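 also: plate controls were neutral control wells for no effect and wells lacking membranes for full effect; tested at 10 µM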
Yeast UUG start – modulators of yeast start codon fidelity, primary screen, whole organism, S. cerevisiae, single point, plate reader; 0.13% of 350,000 active; activity score, % at 18.7 µM; S. cerevisiae UUG-firefly luciferase reporter, luminescence/redox ratio;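 active = replicate mean at a twofold rise or more, about +100% in these data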;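 also: firefly luciferase made from a UUG start codon reports start codon fidelity; reporter light over untreated wells divided by growth signal over untreated wells; some hits fall short of that in this replicate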
eIF4H inh – human eIF4H binding inhibitors, primary screen, translation initiation inhibitor project, biochemical, uHTS, fluorescence polarization | 0.94% of 290,000 active | Eukaryotic translation initiation factor 4H (Homo sapiens), Q15056 | eIF4H fluorescence polarization binding assay | inhibition, % at 35 µM;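 active = 50% or more with normal probe brightness, or confirmed in later tests; inconclusive = above 50% with abnormal brightness, or retests that disagree; inactive = below 50% or failed in later tests; about a fifth of its hits are not listed in these tables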;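 also: calls also rest on retests at 20 µM and on dose response follow-up; 0% = protein and probe with vehicle and 100% = probe without protein; strong numbers were not always called active; many hits fall short of the cut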
CSC inhib – cancer stem cell viability inhibitors, primary screen, luminescence. cancer stem cell-like cells viability. inhibition, % at 7.5 µM. 1.1% of 300,000 active. AID 2717, 2010;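 active = mean at 75% or more and at least half the replicates too; inconclusive = mean and replicates disagree; tested in HMLE shEcad cells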;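 also: 0% = median of negative and 100% = median of positive control wells; the first replicate is given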
eIF4H inh retest – second read-out of eIF4H inh, no call of its own (marks repeat the call); inhibition, %; compound at 20 µM; confirmation average;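 mean of two retest wells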
PABP FP inh retest – also measured in PABP FP inh; calls as there; inhibition, %; compound at 20 µM; confirmation repeats;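 mean of two retest wells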
MT1-MMP act inh RFP – also measured in MT1-MMP act inh; calls as there; RFP signal change, %; measured here: RFP expression control read;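 0 = vehicle wells; hits needed this value within 50% of zero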
The depositor's hits bear a star; i = inactive; u = inconclusive; x = no result given.

Preview:
SMILES	MT1-MMP act inh	MT1-MMP act inh RFP	PABP FP inh	HIV Env fusion	Rce1 inhib	Yeast UUG start	eIF4H inh	CSC inhib	others
Cc1ccc(N/N=C2/CCCNC2=O)cc1	-2	4	10	x	i	-14	1	-3
COc1cc(/C=C(/NC(=O)c2ccc(Cl)cc2Cl)C(=O)O)cc(OC)c1OC	1	3	-9	5	i	-2	7	x
CCN(CC)c1cc(C)c2cc(NC(=O)CNC(C)=O)ccc2n1	6	4	-2	-27	i	5	-6	4
CCOc1ccc(CNC(=O)NS(=O)(=O)c2ccc(OC)cc2)cc1	3	4	8	-19	i	-10	0	-13

The whole of this part, from the first entry:
SMILES	MT1-MMP act inh	MT1-MMP act inh RFP	PABP FP inh	HIV Env fusion	Rce1 inhib	Yeast UUG start	eIF4H inh	CSC inhib	others
Cc1ccc(N/N=C2/CCCNC2=O)cc1	-2	4	10	x	i	-14	1	-3
COc1cc(/C=C(/NC(=O)c2ccc(Cl)cc2Cl)C(=O)O)cc(OC)c1OC	1	3	-9	5	i	-2	7	x
CCN(CC)c1cc(C)c2cc(NC(=O)CNC(C)=O)ccc2n1	6	4	-2	-27	i	5	-6	4
CCOc1ccc(CNC(=O)NS(=O)(=O)c2ccc(OC)cc2)cc1	3	4	8	-19	i	-10	0	-13
C=C(C)CNC(=O)CCc1nnc(C2(c3ccc(Cl)cc3)CCC2)o1	-6	0	8	5	i	x	-6	6
Cn1nnnc1SCC(=O)Nc1ccc2c(c1)OCO2	2	3	7	-4	i	-23	-2	1
O=C(O)C1CSC(c2ccccc2)N1C(=O)c1ccco1 (stereo not given)	0	6	6	x	i	-2	6	19
CN(NC(=O)c1ccc(Cl)cc1)c1cccc(Cl)n1	-1	1	2	-17	i	-9	0	-3
COc1cc([N+](=O)[O-])c(OC)cc1SCc1n[nH]c(=S)n1-c1ccc(C)cc1	1	4	-9	10	i	x	-11	-4
O=C1C=C(NCc2ccncc2)CC(c2ccccc2)C1 (stereo not given)	2	2	15	x	i	-10	-1	-5
Cc1ccc(OCc2nnc(SCc3nc4ccccc4[nH]3)n2Cc2ccco2)cc1	-11	-22	0	x	i	-18	-6	-10
CCCNC(=O)c1ccccc1NC(=O)CN(c1ccccc1)S(=O)(=O)N(C)C	-4	0	-1	18	i	x	-2	4
CC(=O)OCCCNc1cc(Sc2ccc(C)cc2)c2nonc2c1[N+](=O)[O-]	-12	-13	-5	14	i	x	1	12
CCOc1ccc(S(=O)(=O)N2CCCC2)c2ccccc12	2	3	x	5	x	0	x	x
Cc1nnc(N/N=C/c2cccc(C(F)(F)F)c2)n1N	6	5	-6	0	i	-29	-4	3
Cc1ccc(C(C(=O)NC2CCCC2)N(Cc2cccs2)C(=O)CNC(=O)c2cccs2)o1 (stereo not given)	2	-1	4	-71	i	1	-6	-8
Cn1c(SCC(=O)c2ccc3c(c2)OCCO3)nnc1C(F)(F)F	-2	0	-1	-6	i	-14	-11	-14
O=C(c1cnn2ccccc12)N1CCN(C2CCCCC2)CC1	3	8	-1	-7	i	3	-7	-7
COc1cc(C(C(=O)NCC2CCCO2)N(C(=O)Cn2nnc3ccccc32)c2ccc(OC)c(OC)c2)ccc1O (stereo not given)	5	4	6	0	i	-8	9	x
CC(=O)[C@@H]1[C@@H]2C(=O)N(Cc3ccccc3)C(=O)[C@@H]2C2c3ccccc3C=CN21 (stereo not given in full)	-54	9	112*	x	i	x	96*	x
Cn1cc(CN2CCC(C(=O)NC(c3ccc(F)cc3)c3ccc4ccccc4n3)CC2)c2ccccc21 (stereo not given)	-4	-6	x	-52	x	-6	x	x
Cn1c(N)c(C(=O)COC(=O)C2CCCN2C(=O)c2cccs2)c(=O)n(C)c1=O (stereo not given)	0	5	-4	6	i	x	-8	-11
O=C(O)c1cc(-c2ccc(N3CCOCC3)cc2)nn1-c1ccc(F)cc1	0	1	-7	5	i	x	4	-6
Cc1cccc(C(=O)NCC(=O)NCC2COc3ccccc3O2)c1 (stereo not given)	1	2	x	26	i	x	x	-13
CC1(C)Cc2c(c(=S)nc(-c3ccccc3)n2CCCN2CCOCC2)CO1	-5	2	7	x	i	-17	-2	x

New compounds follow:
SMILES	MT1-MMP act inh	MT1-MMP act inh RFP	PABP FP inh	HIV Env fusion	Rce1 inhib	Yeast UUG start	eIF4H inh	CSC inhib	others
CN1CCN(C2=Cc3ccccc3Sc3cc(F)ccc32)CC1	-9	-9	-5	0	i	35	10	18
Cc1cc(=O)oc2c3c(cc(OCC(=O)NC(Cc4ccc(Cl)cc4)C(=O)O)c12)OC(C)(C)CC3 (stereo not given)	-2	3	16	x	i	-5	13	-4
CN1c2ccccc2C(C)(C)C12CC(CCl)=NO2 (stereo not given)	1	4	7	x	i	-17	10	19
CO/N=C/CC(=O)c1ccc(OC)cc1	2	0	-6	27	i	3	-6	-30
CN1CCC2(CC1)Nc1nc(SCc3ccc(Cl)cc3)nn1C1=C2CN(C)CC1	7	-1	10	x	i	-9	-4	4
CC(C)=NNc1nc2c(c(=O)n(C)c(=O)n2C)n1CCc1ccccc1	4	4	-6	-10	i	x	5	-1
COc1ccc(-c2csc(N(CC3CCCO3)C(=O)c3ccccc3)n2)cc1 (stereo not given)	-1	-10	8	23	i	x	-5	x
O=C(CSc1nncs1)NCc1ccc2c(c1)OCO2	1	-1	8	-6	i	-23	-7	4
O=C(CCC(=O)N1CCN(c2ccccn2)CC1)Nc1nnc(C(F)(F)F)s1	0	3	-18	5	i	-9	1	-15
CCCN(CC(=O)Nc1ccc(C(C)=O)cc1)CC(=O)Nc1ccccc1C	-2	1	56*	10	i	x	u	-8	PABP FP inh retest=82*
O=C(CSc1nc2[nH]ncc2c(=O)[nH]1)Nc1ccc(OC(F)(F)F)cc1	0	-4	x	1	i	x	x	14
C/C(CC(=O)N(C(C)C)C(C)C)=N\NC(=O)COc1ccc(Cl)cc1Cl	2	5	-6	-79	i	x	4	-5
Cc1ccccc1Cn1c(=O)c2c(nc3n2CCCN3Cc2ccccc2)n(C)c1=O	3	-5	x	x	i	-2	x	-6
Cc1csc(NC(=O)CSc2ncnc3ccccc23)n1	-4	-8	-2	-307	i	-10	-3	4
COc1ccc(CCn2c(C)cc3c(c2=O)C(c2ccc4c(c2)OCO4)C(C#N)=C(N)O3)cc1OC (stereo not given)	-3	-2	2	x	i	7	1	-12
CC1CCN(C(=O)CCCC(=O)N2CCC(C)CC2)CC1	1	4	2	-19	i	-7	6	-2
COc1ccc(C(Nc2ccc(S(=O)(=O)NCC3CCCO3)cc2)C(=O)NC(C)(C)C)cc1OC (stereo not given)	-8	-2	0	5	i	x	-9	-20
CC(=O)c1ccc(NC(=S)NCc2ccc(Cl)cc2Cl)cc1	2	-4	-4	-6	i	x	3	-4
Cn1nc(-c2ccccc2)c(CSc2ccccc2Cl)c1Cl	-5	-11	-9	x	i	x	-4	8
Cc1ccc(NC(=O)C2Cc3ccccc3CN2C(=O)c2ccccc2)cc1Cl (stereo not given)	-5	-4	-16	3	i	-4	-3	26
COCCn1c(SCC(=O)Nc2cccnc2Cl)nc2ccccc21	0	1	x	x	x	-4	x	-11
CC(NC(=O)C12CC3CC(CC(O)(C3)C1)C2)c1ccccc1 (stereo not given)	1	8	-6	-7	i	-2	-11	-7
Cc1ccc(-n2nc3c(c2NC(=O)c2ccc4c(c2)OCO4)CS(=O)(=O)C3)cc1	-4	-1	0	14	i	-11	-7	-4
O=C(NNC(=S)NC(=O)c1cccs1)c1cccnc1	1	5	-16	-1	i	x	32	3
Cc1ccccc1CSc1nc2ccccc2c(=O)[nH]1	7	4	-8	-11	i	-9	-4	12

The results go on:
SMILES	MT1-MMP act inh	MT1-MMP act inh RFP	PABP FP inh	HIV Env fusion	Rce1 inhib	Yeast UUG start	eIF4H inh	CSC inhib	others
Cc1ccc(C2C(C#N)=C(N)SC(N)=C2C#N)o1	x	x	u	x	i	x	u	-10
CCOC(=O)c1nnc(-c2cccs2)nc1Oc1ccccc1C(=O)OC	4	8	8	3	i	-15	5	-5
Cc1ccc(-c2nc(C(=O)O)cs2)cc1	4	6	-1	6	i	x	-7	1
CCCc1cc(C(=O)Nc2ccccc2C(=O)OC)no1	1	6	-15	-24	i	-22	9	-8
Cc1ccc(Nc2nnc(SCC(=O)Nc3ccccc3[N+](=O)[O-])s2)cc1	3	-6	-19	15	i	x	-8	-7
CC(=O)c1ccc(OC(C)C)c(Cc2c(O)nc(N)[nH]c2=O)c1	5	7	100*	0	i	x	0.7*	x	eIF4H inh retest=96*;PABP FP inh retest=88*
COc1cc(CNCc2ccc(OC)c(OC)c2OC)cc(OC)c1	9	-4	-4	14	i	6	-2	7
Cc1[nH]n(-c2ccccc2)c(=O)c1-c1ccc(Cl)cc1	-1	-1	-4	x	i	-2	-11	13
Cc1ccc(C(O)CSc2nnc(-c3ccc4ccccc4c3)n2C)cc1 (stereo not given)	-1	1	-8	2	i	-11	1	-6
CC(C)(C)OC(=O)C[C@H]1C/C=C\C[C@H](CC(=O)N(CCO)Cc2ccccc2)C(=O)N[C@@H](c2ccccc2)COC1=O	1	0	x	15	x	27	x	-1
Cc1ccc2cc(CN(CC3CCCO3)C(=S)Nc3ccccc3)c(=O)[nH]c2c1 (stereo not given)	-7	-7	5	-4	i	x	0	34
COc1ccc(-c2nnc(SCC(=O)NC3CCCCC3)o2)cc1	0	-2	-2	-3	i	-3	1	x
CC(C)OC(=O)CSc1nc2ncccc2[nH]1	0	1	-6	0	i	-8	-1	1
COCCn1c(=NC(=O)CSC(C)=O)sc2cc(F)ccc21	8	1	-7	x	i	-10	-1	-13
CCC(NC(=O)NCc1ccccc1)(C(F)(F)F)C(F)(F)F	-11	-2	9	x	i	x	-6	-3

Seven records drawn at random from the list so far:
SMILES	MT1-MMP act inh	MT1-MMP act inh RFP	PABP FP inh	HIV Env fusion	Rce1 inhib	Yeast UUG start	eIF4H inh	CSC inhib	others
Cc1ccccc1Cn1c(=O)c2c(nc3n2CCCN3Cc2ccccc2)n(C)c1=O	3	-5	x	x	i	-2	x	-6
O=C(c1cnn2ccccc12)N1CCN(C2CCCCC2)CC1	3	8	-1	-7	i	3	-7	-7
COc1ccc(-c2nnc(SCC(=O)NC3CCCCC3)o2)cc1	0	-2	-2	-3	i	-3	1	x
CCOc1ccc(CNC(=O)NS(=O)(=O)c2ccc(OC)cc2)cc1	3	4	8	-19	i	-10	0	-13
CC(=O)OCCCNc1cc(Sc2ccc(C)cc2)c2nonc2c1[N+](=O)[O-]	-12	-13	-5	14	i	x	1	12
CCOc1ccc(S(=O)(=O)N2CCCC2)c2ccccc12	2	3	x	5	x	0	x	x
Cc1ccc(C2C(C#N)=C(N)SC(N)=C2C#N)o1	x	x	u	x	i	x	u	-10
